TRPML1 blocker: human mucolipin-1 channel inhibition. Q9GZU1. TRPML1-inducible cells, Ca2+ dye fluorescence, FDSS; stronger effect = lower value; inhibition of EC80 agonist-evoked calcium signal. activity change, negative = inhibition, % (concentration not given with the values). hit rate 0.02% among 390,000. AID 624415; in the data active means activity change below about -50%; inconclusive means about -30% to -50%; inactive means above about -30%;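 also: stimulus is agonist 54-4 at its EC80 concentration; % is scaled to controls: 0 for no effect and ±100 for the full control effect; compound concentration not given in the record; the text of the record puts the active cut at -80%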
Target sequence (Q9GZU1 whole entry, looked up): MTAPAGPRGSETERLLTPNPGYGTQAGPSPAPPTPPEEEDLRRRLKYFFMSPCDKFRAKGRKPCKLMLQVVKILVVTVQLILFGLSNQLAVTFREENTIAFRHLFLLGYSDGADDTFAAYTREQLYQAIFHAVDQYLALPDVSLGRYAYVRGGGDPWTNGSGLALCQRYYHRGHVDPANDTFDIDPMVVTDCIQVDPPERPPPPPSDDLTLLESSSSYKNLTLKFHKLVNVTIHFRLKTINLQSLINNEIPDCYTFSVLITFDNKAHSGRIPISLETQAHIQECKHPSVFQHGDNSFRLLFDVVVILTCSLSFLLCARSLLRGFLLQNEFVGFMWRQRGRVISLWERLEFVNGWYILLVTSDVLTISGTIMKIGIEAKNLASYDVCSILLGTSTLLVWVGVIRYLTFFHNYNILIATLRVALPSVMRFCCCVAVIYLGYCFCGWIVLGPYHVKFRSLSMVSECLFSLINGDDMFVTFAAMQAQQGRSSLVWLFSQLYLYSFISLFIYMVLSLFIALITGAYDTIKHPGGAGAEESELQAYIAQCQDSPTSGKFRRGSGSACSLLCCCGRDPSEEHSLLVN
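Tet-induced TRPML1-DL cells loaded with Ca8 no-wash calcium dye were read kinetically on FDSS. Compound addition was followed by EC80 agonist 54-4 (4 uM final); inhibition was read over 110 s.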
TRPML1 agonist: activates the human TRPML1 channel | hit rate 0.12% among 410,000 | Q9GZU1 | TRPML1-expressing cells, Ca2+ dye fluorescence, FDSS; host cell line not named in the record; reference of the full effect not given here | activation, % (test concentration not listed) | AID 624414; in the data active = activation above about 50%; inconclusive = about 30% to 50%; inactive = below about 30%; also: 0% is about no effect; the text of the record puts the active cut at 80%
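TRPML1-DL cells, Tet-induced overnight (~16 h, 37 degrees C), loaded 45-90 min at room temperature with Ca8 no-wash calcium dye plus quencher. FDSS fluorescence: 10 s baseline, compound pin-transfer, 110 s agonist read, then EC80 54-4 (4uM final) and 110 s antagonist read.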
Starred values were filed as active, the others as inactive; ? = inconclusive.

SMILES | TRPML1 blocker | TRPML1 agonist
COc1ccc(Cn2ccc3nc(C)c(C(=O)NCc4cccc(OC)c4)cc3c2=O)cc1 | -6 | 2.4
COc1ccc(C2CC(=O)c3cc(-c4nc(-c5cccc(Cl)c5)cs4)c(=O)[nH]c3C2)cc1 (stereo not given) | -7 | -0.3
Cc1ccc(S(=O)(=O)c2nnn3c2nc(N2CCCC(C)C2)c2cc(Cl)ccc23)cc1C (stereo not given) | -10 | -1.0
Cc1cc(C)c2oc(C(=O)Nc3ccc(S(=O)(=O)Nc4ncccn4)cc3)cc(=O)c2c1 | 2 | 1.9
CCOc1ccc(CC(=O)Nc2c(C(=O)c3ccc(C)cc3)oc3ccccc23)cc1OCC | -8 | -0.1
COc1ccccc1N1CCN(c2ccc(=O)n(CC(=O)O)n2)CC1 | -1 | 0.0
COc1cccc(NC(=O)C2CCN(S(=O)(=O)c3cccc4nonc34)CC2)c1 | -27 | -0.5
Cc1ccc(CNC(=O)CCc2nnc3n(C)c(=O)c4sccc4n23)cc1 | -8 | 0.3
COc1ccccc1CNC(=O)C(=O)NCC(c1cccnc1)N1CCN(c2ccccc2)CC1 (stereo not given) | -4 | 1.7
COc1cccc(CNC(=O)CSc2ncc(S(=O)(=O)c3ccc(C)c(Cl)c3)c(=O)[nH]2)c1 | 10 | 1.5
COc1ccc2oc(=O)c(-c3nc(-c4cc(OC)c(OC)c(OC)c4)no3)cc2c1 | -11 | -0.2
CC(CC(=O)Nc1ccc(F)cc1)S(=O)(=O)c1cc2c3c(c1)CCN3C(=O)CC2 (stereo not given) | -5 | -0.6
COc1ccc2c(c1)CC(C(=O)Nc1ccc(Br)c(C)c1)CO2 (stereo not given) | 13 | 0.4
CCCS(=O)(=O)N1CC(=O)N(c2ccc(C)cc2C)C(C)(C(=O)NC2CCCCCC2)C1 (stereo not given) | 4 | 0.9
COc1cc2oc(=O)c(CC(=O)N3CCCCC3)c(C)c2cc1OC | -18 | 0.7
CCc1ccc(NC(=O)CSC2=Nc3ccccc3C3=NC(CCC(=O)NCc4cccs4)C(=O)N23)cc1 (stereo not given) | -16 | 0.0
CC(=O)Nc1ccn(C2CC3OCC(NC(=O)C(Cc4ccccc4)NC(=O)OC(C)(C)C)C3O2)c(=O)n1 (stereo not given) | -6 | 0.2
COc1ccccc1NC(=O)C1=C(C)Nc2nc(SCc3ccccc3C)nn2C1CC(C)C (stereo not given) | -1 | -1.1
COc1ccc2oc(=O)cc(CN3CCN(C(=O)c4ccccc4Br)CC3)c2c1 | ? | -0.2
CC1=C(c2ccc(C)c(C)c2)S(=O)(=O)N=C1N1CCN(c2cccc(C)c2)C(C)C1 (stereo not given) | -6 | -0.6
COC(=O)c1ccc(NC(=O)CCc2c(C)nc3c(c2C)c(=O)n(C)c(=O)n3C)cc1 | -16 | -0.8
COc1ccc(CCNC(=O)c2ccc(Cn3c(=O)c4ccccc4n(Cc4ccccc4Cl)c3=O)cc2)cc1OC | -5 | -0.5
N#Cc1ccc(CSc2nc3c(c(=O)[nH]2)CCCC3)cc1 | 19 | 4.9
Cc1nn(C(C)C(=O)NC2CCCCC2)c(=O)c2c1sc1ccccc12 (stereo not given) | 0 | 2.8
CCCCN(CC)CCCn1cnc2c([nH]c3ccc(Cl)cc32)c1=O | -12 | 0.1
CCS(=O)(=O)N1CCc2cc(C(=O)NCc3ccc(Cl)cc3)ccc21 | -14 | -0.8
COc1cc(NC(=O)c2noc3c2CC(C(C)(C)C)CC3)cc(OC)c1OC (stereo not given) | 6 | -0.5
Cc1ccc(NC(=O)c2oc3ccccc3c2NC(=O)c2ccccc2C)cc1 | -21 | -0.7
CCOC(=O)C1CCCN(C(=O)c2nn(-c3ccc(C)cc3)c(=O)n(C)c2=O)C1 (stereo not given) | 11 | -0.3
COc1nnc(-c2ccc(N3CCCCC3)c(NC(=O)c3ccccc3Cl)c2)c2ccccc12 | 14 | 0.0

Six entries from above, ordered by the number in TRPML1 blocker, falling.
SMILES,TRPML1 blocker
N#Cc1ccc(CSc2nc3c(c(=O)[nH]2)CCCC3)cc1,19
COc1nnc(-c2ccc(N3CCCCC3)c(NC(=O)c3ccccc3Cl)c2)c2ccccc12,14
CCOC(=O)C1CCCN(C(=O)c2nn(-c3ccc(C)cc3)c(=O)n(C)c2=O)C1 (stereo not given),11
Cc1nn(C(C)C(=O)NC2CCCCC2)c(=O)c2c1sc1ccccc12 (stereo not given),0
CCCCN(CC)CCCn1cnc2c([nH]c3ccc(Cl)cc32)c1=O,-12
CCS(=O)(=O)N1CCc2cc(C(=O)NCc3ccc(Cl)cc3)ccc21,-14

Carrying on.
SMILES | TRPML1 blocker | TRPML1 agonist
CC(=O)Nc1ccc(NC(=O)c2ccc(COc3ccc(Cl)cc3Cl)o2)cc1 | -8 | -0.8
Cc1ccc(OCC(=O)Nc2ccccc2C(=O)OCc2cc(=O)n3c(C)csc3n2)cc1 | -5 | 1.8
CCOC(=O)C1CCN(C(=O)CSc2n[nH]c(-c3ccc(OC)cc3)n2)CC1 | 5 | 0.7
COc1ccc(-n2c(-c3ccc(Cl)cc3)cc3c2CC(C)(C)CC3=O)c(OC)c1 | 35 | 0.8
CCc1ccc(Sc2cc(C(=O)NC(C)CC)c3ccccc3n2)cc1 (stereo not given) | -7 | 30
Cc1ccc(-c2noc(CN(C3CCCCC3)S(=O)(=O)c3ccc(C)cc3)n2)cc1 | 6 | -0.2
COc1cccc(CNC(=O)c2nc(Cn3nc(C)c(Br)c3C)no2)c1 | -7 | 1.2
Cc1ccc(N(C)C(CNS(=O)(=O)c2ccccc2)c2ccccc2)cc1 (stereo not given) | 23 | 4.1
COC(=O)c1c(NC(=O)Cc2coc3ccc(C)cc23)sc2c1CCC2 | -1 | 0.5
O=C(NCCC1=CCCCC1)c1ccc2c(c1)ncn2-c1cccc(Cl)c1 | 0 | 1.5

2 entries from above, reformatted:
CC(=O)Nc1ccc(NC(=O)c2ccc(COc3ccc(Cl)cc3Cl)o2)cc1
  TRPML1 blocker = -8	TRPML1 agonist = -0.8

Cc1ccc(OCC(=O)Nc2ccccc2C(=O)OCc2cc(=O)n3c(C)csc3n2)cc1
  TRPML1 blocker = -5	TRPML1 agonist = 1.8

The listing continues.
SMILES | TRPML1 blocker | TRPML1 agonist
CCn1c(NCc2ccc(OC)c(OC)c2)nc2ccccc21 | -2 | 2.2
CC1CCN(S(=O)(=O)c2cc(C(=O)N3CCN(c4ccccc4F)CC3)n(C)c2)CC1 | 27 | 0.8
Cc1cccc(N(CC(=O)Nc2ccccc2C(F)(F)F)S(=O)(=O)c2ccccc2)c1C | 54 | 1.0
Cc1cccc(CNC(=O)CCCn2c(=O)c3cccn3c3ccc(F)cc32)c1 | 27 | 5.4
CCOc1ccc(NC(=O)c2ccc(F)c(S(=O)(=O)NCc3ccc4c(c3)OCO4)c2)cc1 | -27 | 3.0
Cc1ccc(-c2nc3ccc(Cl)cn3c2Nc2ccc3c(c2)OCCO3)o1 | -2 | 1.3
CCOc1ccc2c(c1)c(=O)c(S(=O)(=O)c1ccccc1)cn2CC(=O)Nc1ccccc1OC | 7 | -0.7
CCOC(=O)C1CCC(CN(Cc2c(Cl)cccc2Cl)S(=O)(=O)c2ccc(Cl)cc2)CC1 (stereo not given) | 21 | 1.8
CN1C(=O)C2(c3ccccc31)N(c1ccc(F)c(Cl)c1)C(=O)CS2(=O)=O (stereo not given) | -2 | 0.3
Cc1cccc(N(C)C(=O)CSc2nc3ncccc3o2)c1 | -25 | 0.9

Arranged by length of the SMILES (low to high): three of the compounds above.
SMILES | TRPML1 blocker | TRPML1 agonist
Cc1cccc(CNC(=O)CCCn2c(=O)c3cccn3c3ccc(F)cc32)c1 | 27 | 5.4
Cc1cccc(N(CC(=O)Nc2ccccc2C(F)(F)F)S(=O)(=O)c2ccccc2)c1C | 54 | 1.0
CCOc1ccc(NC(=O)c2ccc(F)c(S(=O)(=O)NCc3ccc4c(c3)OCO4)c2)cc1 | -27 | 3.0

The listing continues.
SMILES | TRPML1 blocker | TRPML1 agonist
Cc1cccc(C)c1NC(=O)CCCN1C(=O)CCn2nc(-c3cn(C)c4ccccc34)cc21 | -28 | 0.7
Cc1ccc(-n2nc(C)c3nc(CCC(=O)Nc4ccc(F)cc4)c(=O)n(C)c32)cc1 | -28 | 0.2
COc1ccc(N2C(=O)CS(=O)(=O)C23C(=O)N(Cc2cccc(F)c2)c2ccccc23)cc1OC (stereo not given) | 1 | 1.4
CCOc1ccc(Sc2cc(C(=O)NC(C)c3ccccc3)c3ccccc3n2)cc1 (stereo not given) | -14 | 0.8
Cc1ccc(-c2n[nH]c3c2C(c2ccc(C(C)(C)C)cc2)NC3=O)cc1 (stereo not given) | 3 | 1.0
O=C(c1ccccc1Br)N(Cc1ccco1)C1CCS(=O)(=O)C1 (stereo not given) | 2 | -0.4
CCCCCOC(=O)c1ccc(Nc2nc(C(=O)OCC)nc3ccccc23)cc1 | -16 | 1.2
CCOc1ccc(Cn2nnc(C(=O)Nc3ccc(Cl)cc3)c2N)cc1 | 1 | -0.3
O=S(=O)(c1ccc(Cl)cc1)c1nc(-c2cccs2)oc1SCc1ccc(F)cc1 | 13 | 0.9
O=C(c1ccc2c(c1)OCO2)c1cn(Cc2ccc(Cl)cc2)c2ccc(F)cc2c1=O | 26 | 4.6

One compound at a time, from the list above:
`O=S(=O)(c1ccc(Cl)cc1)c1nc(-c2cccs2)oc1SCc1ccc(F)cc1` is listed with TRPML1 blocker: 13; TRPML1 agonist: 0.9
`O=C(c1ccc2c(c1)OCO2)c1cn(Cc2ccc(Cl)cc2)c2ccc(F)cc2c1=O` is listed with TRPML1 blocker: 26; TRPML1 agonist: 4.6

Other entries
SMILES | TRPML1 blocker | TRPML1 agonist
Cc1cc(F)ccc1S(=O)(=O)NCC(c1ccco1)S(=O)(=O)c1cccs1 (stereo not given) | -6 | 0.9
COc1ccc(NC(=O)Cn2c(=O)c3cccn3c3ccccc32)cc1Cl | 6 | 1.7
Cc1ccc(OCC(=O)N(Cc2ccco2)Cc2ccco2)cc1 | 3 | 5.4
O=C(Nc1ccc(F)cc1)c1csc2c1CCCCC2 | 16 | 0.1
O=C(NCc1cccc(Cl)c1)c1ccc2c(Cl)c3c(nc2c1)CCCC3 | -9 | -0.3
Cc1ccc(-c2cc3c(n2-c2ccc(F)cc2)CC(C)(C)CC3=O)cc1 | -1 | 1.1
Cc1cccc(OCC(=O)N(Cc2ccc(N(C)C)cc2)Cc2ccco2)c1C | 19 | 2.7
CCCn1c2ccccc2c2cnn(CC(=O)NCCCN(CC)c3ccccc3)c(=O)c21 | -1 | 1.1
Cc1ccn2c(=O)c(C(=O)Nc3ccc(F)c(C(F)(F)F)c3)cnc2c1 | 5 | 0.5
COC(=O)c1ccc(C(=O)OC)c(NC(=O)c2ccc(-c3ccccc3)s2)c1 | 20 | 2.5
CCCN(C(=O)Cn1ncc2c([nH]c3ccc(C)cc32)c1=O)c1ccccc1C | 10 | 1.9
COc1ccc(CN(C(=O)Nc2cc(C)ccc2C)C2CCN(C(C)=O)CC2)cc1 | 0 | -0.1
O=C(C1CCCN(S(=O)(=O)c2cccc3nsnc23)C1)N1CCN(c2ccccc2Cl)CC1 (stereo not given) | -1 | -0.8
CCC(C)NC(=O)C1CCN(S(=O)(=O)c2ccc3c(ccn3CC)c2)CC1 (stereo not given) | -3 | 1.5
COc1cc2ncc3c(-c4ccccc4)nn(-c4ccc(C)cc4)c3c2cc1OC | -14 | 2.4
O=C(CS(=O)(=O)c1cccc2nsnc12)Nc1ccc(F)cc1 | -10 | 0.1
COc1ccc(CCNC(=O)C2CCC(CNS(=O)(=O)c3ccc(C)cc3)CC2)cc1OC (stereo not given) | -1 | 0.6
CCOC(=O)c1cc(-c2ccccc2)n(CCCC(=O)Nc2cc(C)ccc2OC)c1C | 6 | 1.1
COc1ccc(Nc2nc3ccc(Cl)cc3nc2-n2nc(C)cc2C)cc1 | 11 | 0.2
Cc1ccc(-n2c3c(cc(C(=O)Nc4ccccc4C(N)=O)c2=O)C(=O)CC(C)(C)C3)cc1 | 4 | -0.3
Cn1c(=O)n(Cc2c(F)cccc2Cl)c(=O)c2c1nc1n2CCN1c1ccc(F)cc1 | -5 | -0.7
CC(C)(C)OC(=O)N1CCC(c2c(C(=O)Nc3ccc4c(c3)OCO4)cnn2-c2ccccc2)CC1 | 6 | 1.0
COc1cc(Cl)c(C)cc1Nc1nnc(-n2nc(C)cc2C)c2ccccc12 | -15 | 0.7
O=C(NCCCc1nc2ccccc2n1Cc1cccc(Cl)c1)C1CCCCC1 | 39 | 3.4
Cc1cccc2nc(-c3ccc(Cl)s3)c(Nc3ccc4c(c3)OCCO4)n12 | -10 | 1.2
Cc1ccc(Cl)cc1N1CCN(C(=O)c2cc(S(=O)(=O)N3CCCC3)c[nH]2)CC1 | 7 | 0.8
CCCN(CCC)C(=O)CN1C(=O)CSc2ccc(S(=O)(=O)N3CCC(C)CC3)cc21 | -23 | 28
COC(=O)c1ccc(Cl)cc1NC(=O)N(Cc1ccc(OC)cc1)C1CCN(C(C)=O)CC1 | 29 | 5.9
CCCSCCCNC(=O)c1sc2nc(C)cc(C)c2c1-n1cccc1 | 10 | 0.4
O=C(NCc1ccccc1)c1cnc2sc(N3CCCC3)nn2c1=O | -1 | -0.3
CCOC(=O)C1CCCN(S(=O)(=O)c2ccc3[nH]c(=O)oc3c2)C1 (stereo not given) | -16 | -0.4

Source: PubChem BioAssay

This is a subset; the hit share may differ from the screen's.
